High-throughput results deposited in PubChem by several laboratories.
CBX7 AlphaScr: CBX7 inhibition, primary AlphaScreen; 66,000 compounds, 1.1% hits; AlphaScreen His6-CBX7 / biotin-H3K27me3 peptide binding; stronger effect = lower value; normalised signal (fraction of DMSO) (concentration not given with the values); O95931; in the data active = normalised signal below about 0.5;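 note: 100 nL library stock added to about 20 µL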
Target sequence (O95931 whole entry, looked up): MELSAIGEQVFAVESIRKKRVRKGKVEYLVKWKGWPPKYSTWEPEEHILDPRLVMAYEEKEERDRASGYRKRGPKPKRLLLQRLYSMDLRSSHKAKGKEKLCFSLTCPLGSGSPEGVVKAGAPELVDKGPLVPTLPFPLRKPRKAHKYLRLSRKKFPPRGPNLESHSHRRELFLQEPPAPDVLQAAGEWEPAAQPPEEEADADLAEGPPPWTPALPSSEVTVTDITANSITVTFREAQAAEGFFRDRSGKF
CBX7 AlphaScr z-score: second read-out of CBX7 AlphaScr, no call of its own (marks repeat the call); z-score; measured here: z-score of CBX7 signal; some inactives read as strong as hits; reference of the scale not given here;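 same signal on another scale; lower means less binding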
* = called active by the depositor. This is a subset; rates above refer to the full screens.

smiles	CBX7 AlphaScr	CBX7 AlphaScr z-score
COc1ccc(CNc2oc(COc3ccc(OC)cc3)nc2C#N)cc1	0.72	-15
COc1ccc(-n2c(Cc3cc(=O)[nH]c(=O)[nH]3)nnc2SCC(=O)NC2CCCCC2)cc1	1	0.17
N#Cc1ccc(C(=O)Nc2cccc(-c3nc4ccccc4[nH]3)c2)cc1	1.2	1.5
Cc1ccc(Nc2c(-c3cccs3)nc3ccccn23)cc1	0.98	-0.86
CN1CCN(C(=O)c2nn3c(C(F)(F)F)cc(-c4cccs4)nc3c2Br)CC1	1	0.31
CCCCN(C)CCNC(=O)c1cc(=O)[nH]c2ccc(S(=O)(=O)N3CCCC3)cc12	1	0.15
Cc1ccc(OCCn2c(CNc3cccc(C)c3)nc3ccccc32)cc1	0.85	-5.6
CCCCNC(=O)c1cc(-c2ccc(OC)cc2)on1	1.4	2.3
COc1ccccc1CNc1nc(C)nc2sc(C)c(C)c12	1.2	2
CC1=Nc2cc(C(=O)N3CCC(C)CC3)ccc2Sc2ccc(Cl)cc21	0.93	-0.87
CCN(CC)c1cc(C)c2cc(NC(=O)Cc3cccc(C)c3)ccc2n1	1.2	2.1
Cc1ccc(S(=O)(=O)N(CCCN(C)C)Cc2ccc3c(c2)OCO3)cc1	1	1.1
COc1ccc(-c2nc3ccccc3n2Cc2ccc(C)cc2)cc1	0.92	-1.7
COc1ccc(/C=C/c2nn3c(-c4ccccc4Cl)nnc3s2)cc1	1.1	2.9
O=C(CSc1nnc(CNC(=O)c2cccs2)o1)NCc1ccccc1	1	0.14
Cc1ccc(Nc2nnc(-c3ccc(C)c(S(=O)(=O)N4CCOCC4)c3)c3ccccc23)c(C)c1	0.76	-4.5
COc1ccc(C(=O)Nc2c3c(nn2-c2cccc(Cl)c2)CSC3)cc1OC	0.84	-2.7
CCC(=O)N1CCc2cc(S(=O)(=O)NC(Cc3ccccc3)C(=O)NCc3ccccc3)ccc21 (stereo not drawn)	1.1	1.8
Cc1ccc(OCC(O)CNS(=O)(=O)c2ccccc2C(=O)N2CCCCC2)cc1 (stereo not drawn)	0.92	-0.88
Cc1ccc(C2C(=C(O)c3ccccc3)C(=O)C(=O)N2CCCn2ccnc2)cc1 (stereo not drawn)	1.1	1.4
CCOC(=O)c1cnc2ccc(Cl)cc2c1Nc1ccc(OC)c(OC)c1	0.9	-2.7
COc1ccc(C(=O)Nc2ccccc2C(=O)Nc2nc3ccccc3n2C)cc1	1.2	1.5
CCOc1ccccc1CNC(=O)c1cc(=O)[nH]c2ccc(S(=O)(=O)N3CCCC(C)C3)cc12 (stereo not drawn)	0.93	-0.97
CCOC(=O)c1c(C)n(C)c2ccc(OC)c(S(=O)(=O)c3ccc(OC)cc3)c12	0.79	-2.1
Cc1ccc2c(c1)-c1c(cnn1CC(=O)NCCCOC(C)C)CO2	1	1.2

Three compounds already listed, arranged by the value under CBX7 AlphaScr z-score, descending:
SMILES	CBX7 AlphaScr z-score
COc1ccc(C(=O)Nc2ccccc2C(=O)Nc2nc3ccccc3n2C)cc1	1.5
CC1=Nc2cc(C(=O)N3CCC(C)CC3)ccc2Sc2ccc(Cl)cc21	-0.87
CCOC(=O)c1c(C)n(C)c2ccc(OC)c(S(=O)(=O)c3ccc(OC)cc3)c12	-2.1

Additional entries follow.
smiles	CBX7 AlphaScr	CBX7 AlphaScr z-score
O=c1cc(Cc2nnc(SCc3cccnc3)n2-c2ccc(F)cc2)[nH]c(=O)[nH]1	0.98	-0.5
CC(C)CCNC(=O)CN1C(=O)CSc2ccc(S(=O)(=O)N3CCOCC3)cc21	0.83	-2
Cc1c(NC(=O)c2ccccc2Cl)cccc1-c1nc2ncccc2o1	0.83	-1.9
CN(C)C(=O)N1CCCC(C(=O)NCc2ccc(F)cc2Cl)C1 (stereo not drawn)	1	0.62
Cc1cccc(NC(=O)CN(C)S(=O)(=O)c2ccc3c(c2)CCC(=O)N3)c1C	0.93	-1.6
COc1ccc(NC(=O)CC2Oc3ccccc3NC2=O)c(OC)c1 (stereo not drawn)	1.1	2.6
CCC(C)NC(=O)c1ccc2c(c1)ncn2-c1cc(C)ccc1OC (stereo not drawn)	0.98	-0.21
COCCN1Cc2cccc(C(=O)NC(C)c3cccs3)c2C1=O (stereo not drawn)	0.99	-0.01
COC(CNC(=O)c1ccc2c(c1)N(Cc1cccc(Cl)c1)C(=O)c1ccccc1S2=O)OC (stereo not drawn)	0.95	-0.3
O=C(NCCCc1ccccc1)C1CCN(c2nnc(-n3cccc3)s2)CC1	1.1	2.7
NC(=O)COc1ccc(-c2noc(COc3ccc(F)cc3)n2)cc1	0.99	-0.18
Cc1cc2nc(-c3cccc(NC(=O)c4ccc(Cl)cc4Cl)c3)oc2cc1C	1	0.42
Cc1cc(NC(=O)C(=O)NCCCN2CCOCC2)ccc1Br	0.99	-0.011
Cc1c(C)n(CC(O)CN2CCN(C)CC2)c2ccccc12 (stereo not drawn)	0.98	-0.5
O=C(c1cc(-c2ccc(Cl)cc2)on1)N1CCCc2ccccc21	0.94	-1
CC1CCN(c2nc3ccc(C(=O)NCCCOC(C)C)cc3s2)CC1	0.96	-0.79
O=C(CCCCn1c(=O)[nH]c2ccccc2c1=O)N1CCN(c2ncccn2)CC1	1.1	0.15
COC(CNC(=O)Cc1ccc(-n2c(=O)[nH]c3ccsc3c2=O)cc1)OC	1	0.19
COc1ccc(C(=O)N2CC(=O)Nc3ccc(Br)cc3C2c2ccc(F)cc2)cc1OC (stereo not drawn)	0.69	-5.7
Cc1cccc(-n2ccnc2SCC(=O)Nc2ccccc2)c1C	0.86	-0.14
CCn1c(=O)c(=O)n(CC)c2cc(S(=O)(=O)Nc3ccc(C)cc3)ccc21	1	1.3
Cc1ccc(S(=O)(=O)Nc2cc3c(C)cc(=O)oc3cc2C)cc1	1.1	1.3
Cc1ccc2nc(NS(=O)(=O)c3ccc(Cl)cc3)c(Nc3ccc(N4CCCCC4)c(Cl)c3)nc2c1	0.81	-0.25
Cc1ccc(NC(=O)c2cc3c(CO)cnc(C)c3oc2=O)c(Cl)c1	1.1	2
COc1ccc(C2CC(=O)C(C)C(c3ccc(OC)cc3)N2)cc1 (stereo not drawn)	1.1	0.86
Cc1c(C(=O)NCCN(C)C)oc2ccc(S(=O)(=O)N3CCC4(CC3)OCCO4)cc12	1.1	0.51
O=C(NC1CCCCC1)c1ccc2c(c1)N(Cc1cccc(Cl)c1)C(=O)c1ccccc1S2=O (stereo not drawn)	0.95	-0.29
COc1ccccc1CNC(=O)c1cnc(Nc2ccccc2OC)c2ccccc12	1.1	3.7
O=C(Nc1ccc(Cl)cc1)C(Cc1ccccc1)NS(=O)(=O)c1cccc2cccnc12 (stereo not drawn)	1.1	0.84
CCC1Sc2ccccc2N(CC(=O)NCCN(CC)CC)C1=O (stereo not drawn)	1	2.2
CCC(=O)N1CCc2cc(S(=O)(=O)NC(CC(C)C)C(=O)NCc3ccc(C)cc3)ccc21 (stereo not drawn)	1.1	1.5
Cc1c(C(=O)Nc2ccccc2Cl)oc2ccc(S(=O)(=O)N3CCCC3)cc12	0.97	-0.74
CC(C)C1C(=O)CC(c2ccc(Cl)cc2)NC1c1ccc(Cl)cc1 (stereo not drawn)	1	0.88
CCN(CC)CC(=O)NCC1(c2ccccc2)CCOCC1	0.85	-0.43
CC12C(=O)N(c3cccc(C(F)(F)F)c3)C(=O)C1C1C=CC2C1 (stereo not drawn)	0.85	-1.9
CC(C)(C)c1ccc(OCc2nnc(NC(=O)c3cccs3)s2)cc1	0.98	-0.6
Cc1ccc(C(C)C)c(OCC(=O)Nc2ccc(-c3nc4ccc(C)cc4s3)cc2)c1	0.98	-0.52
CCOC(=O)Nc1ccc2c(c1)N(C(=O)CNC)c1ccccc1CC2	1.1	1.3
CC1(C)CC(CCN)(c2ccc(F)cc2)CCO1 (stereo not drawn)	1	0.2
O=C(O)c1cccc(NC(=O)c2cccc(S(=O)(=O)N3CCCCCC3)c2)c1	1	-0.0023
COc1ccc(C(=O)Nc2c(C(=O)c3ccc(OC)cc3)oc3ccccc23)cc1	1	0.75
COc1ccccc1OCc1ccc(C(=O)Nc2nc3ccccc3n2CCN2CCCCC2)cc1	0.76	-0.32
O=C(CSc1nnc(-c2cccnc2)o1)c1c[nH]c2ccccc12	1.1	2.5
Cc1cccc(N2CCN(C(=O)C3CCC(=O)N3C(C)C)CC2C)c1 (stereo not drawn)	1	0.89
COc1ccc(C2C(C(=O)Nc3ccc(C(F)(F)F)cc3)CCC(=O)N2c2ccc3c(c2)OCO3)cc1 (stereo not drawn)	0.98	-0.99
CCOC(=O)c1cc(-c2ccccc2)n(-c2cccc(C(=O)Nc3ccc(OC)cc3)c2)c1C	0.76	-4.4
Cc1ccccc1C(=O)Nc1cccc(-c2nc3ncccc3o2)c1	1	0.47
NS(=O)(=O)c1ccc(CNC(=O)C23CC4CC(C2)CC(n2cncn2)(C4)C3)cc1	1.1	1.3
O=C(NC1CCCCC1)C1CCCN(S(=O)(=O)c2cccnc2)C1 (stereo not drawn)	1	0.035
O=C(NCC1CCCO1)c1cc(Nc2cccc(C(F)(F)F)c2)nc2ccccc12 (stereo not drawn)	1.3	7.7

Molecules from the list above that contain a CF3 group, in the order listed:
smiles	CBX7 AlphaScr	CBX7 AlphaScr z-score
CN1CCN(C(=O)c2nn3c(C(F)(F)F)cc(-c4cccs4)nc3c2Br)CC1	1	0.31
CC12C(=O)N(c3cccc(C(F)(F)F)c3)C(=O)C1C1C=CC2C1 (stereo not drawn)	0.85	-1.9
COc1ccc(C2C(C(=O)Nc3ccc(C(F)(F)F)cc3)CCC(=O)N2c2ccc3c(c2)OCO3)cc1 (stereo not drawn)	0.98	-0.99
O=C(NCC1CCCO1)c1cc(Nc2cccc(C(F)(F)F)c2)nc2ccccc12 (stereo not drawn)	1.3	7.7

Continuation:
smiles	CBX7 AlphaScr	CBX7 AlphaScr z-score
COc1ccc(S(=O)(=O)NCCc2cc3c(C)ccc(C)c3[nH]c2=O)cc1	1.1	0.56
Cc1ccc(C2CC(C(F)(F)F)n3nc(C(=O)Nc4ccc(C(C)O)cc4)cc3N2)cc1 (stereo not drawn)	1	0.74
Cc1ccccc1C(=O)NCCc1cc2c(C)ccc(C)c2[nH]c1=O	1.1	0.17
CCOc1ccccc1NC(=O)Cn1c(=O)n(Cc2ccccc2Cl)c(=O)c2cccnc21	1	0.83
CCCOC(=O)c1ccc(OCC(O)Cn2cnc3ccccc32)cc1 (stereo not drawn)	0.97	-0.81
Cc1noc(C)c1S(=O)(=O)N(C)Cc1ccccc1	1	1.6
O=C(CN1N=C(c2ccc(Cl)cc2)CCC1=O)NCc1cccnc1	1.1	1
CCn1c2ccccc2n2cc(-c3ccccc3)nc12	1.1	3.5
CCOc1ccc(-c2cc(C(=O)NCCc3ccc(C)cc3)c3ccccc3n2)cc1	1	1.7
COCc1nc2ccccc2n1CCOc1ccc(OC)cc1	1	0.57
Clc1ccc2nc(-c3cccnc3)cc(-c3ccccc3)c2c1	1	0.0099
Cc1ccc(-c2nnc(NCc3ccccc3)c3ccccc23)cc1S(=O)(=O)NC(C)(C)C	0.9	-2.7
COc1ccc(NC(=O)CCNC(=O)Cn2ccc3ccccc3c2=O)cc1OC	1	1.2
Cc1n[nH]c(C)c1S(=O)(=O)N1CCCC(C(=O)Nc2ccc3c(c2)OCCO3)C1 (stereo not drawn)	0.99	-0.17
Cc1ccc(NC(=O)CNC(=O)Cn2c(C)cc3ccccc3c2=O)cc1F	1.3	2.5
Cc1ccc(-c2nc(CS(=O)(=O)CC(=O)Nc3ccc(C)cc3C)c(C)o2)cc1	0.96	-0.082
CCCNC(=O)Cn1cnc2sc(C(=O)O)c(C)c2c1=O	1	0.64
Cc1ccc(-c2nc(Nc3ccc4c(c3)OCCO4)c3ccccc3n2)cc1	1.2	1.4
CC1CCCN(S(=O)(=O)c2ccc(C(=O)Nc3ccccc3-c3nc4ccccc4[nH]3)cc2)C1 (stereo not drawn)	1.1	0.079
CC(C)Cc1cc(C(=O)Nc2ccccc2C(F)(F)F)no1	1.4	7.8
COc1ccc2nc(N3CCCC(C(=O)NCCN4CCOCC4)C3)sc2c1 (stereo not drawn)	1.1	2.2
Cc1cc2c(=O)n(CC(=O)Nc3ccc(F)cc3Cl)cnc2s1	1	0.64
COc1ccc(NS(=O)(=O)c2ccc3c(c2)NC(=O)CC(=O)N3)c(OC)c1	0.99	-0.47
Cc1ccc(NC(=O)c2csc3c2CCCCC3)c(C)c1	1.1	2.8
Cc1c(Cl)cccc1NC(=O)c1cnn2cccnc12	1	0.85

The closing three compounds of the part above are carried over, then new ones follow.
smiles	CBX7 AlphaScr	CBX7 AlphaScr z-score
COc1ccc(NS(=O)(=O)c2ccc3c(c2)NC(=O)CC(=O)N3)c(OC)c1	0.99	-0.47
Cc1ccc(NC(=O)c2csc3c2CCCCC3)c(C)c1	1.1	2.8
Cc1c(Cl)cccc1NC(=O)c1cnn2cccnc12	1	0.85
CCN(CC)c1cc(C)c2cc(NC(=O)c3ccc(F)cc3Cl)ccc2n1	1.1	0.68
O=C(c1ccc2c(c1)ncn2C1CCCC1)N1CCOCC1	0.99	-0.21
O=C(CSc1nnc(Cc2cc(=O)[nH]c(=O)[nH]2)n1-c1ccccc1)NCc1ccccc1	1	0.94
O=C(CSc1nnc(CNC(=O)c2ccccc2F)o1)Nc1cc(C(F)(F)F)ccc1Cl	1.1	1.7
Cc1ccc(NC(=O)CC2Sc3ccc(C(F)(F)F)cc3NC2=O)cc1 (stereo not drawn)	0.98	-0.91
CCCN1CCCc2cc(CN(C(=O)Nc3ccc(Cl)c(Cl)c3)C(C)CC)ccc21 (stereo not drawn)	0.59	-6.5
Cc1ccc2c(c1)c(C)c(C)n2CC(O)CN1CCCCC1 (stereo not drawn)	1.2	2.9
COc1ccc(CCNC(=O)C(=O)c2c(-c3ccccc3)[nH]c3ccccc23)cc1OC	0.94	-0.61
